Source: PubChem
B2AR ag: activates human beta-2 adrenergic receptor causing internalization. Am2.2-beta2AR cells, FAP receptor internalization, flow cytometry; reference of the scale not given here. response, % (concentration not given with the values). 340,000 tested, 0.43% active;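 active = response above a set limit, near 3 SD of response in nonfluorescent compounds, cut at about 42% in these data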;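 note: stock transfer was 100 nL into about 11 µL; a reference agonist was the positive control; negative values mostly stem from fluorescent compounds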
HNF4A DNA FP: change in binding of human HNF4 alpha to DNA | P41235 | HNF4a-FITC DNA binding, fluorescence polarization, 1 h | activity change, % at 10 µM | 360,000 tested, 0.3% active | AID 1224865; in the data active = activity change above about 30%, passing the limit was not always enough;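 note: controls were the assay level and a saturating level of protein; the project sought stronger binding though the title names inhibitors; some compounds called inactive have numbers as strong as hits; positive values seem to mean higher polarization but the record does not say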
ALR H2O2 inh: blocks human ALR sulfhydryl oxidase activity; P55789; purified ALR, DTT oxidation, H2O2 HRP-luminol luminescence; inhibition, % (test concentration not listed); 290,000 tested, 3.8% active; AID 485317;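 active = mean and each replicate at 75% or more; inconclusive = only one of the two met; inactive = neither met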;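 note: stock transfer was 7.5 nL into about 7.5 µL; 0% = neutral wells and 100% = wells with inactivated enzyme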
Calb FLC: affects C. albicans growth with fluconazole; 300,000 tested, 0.57% active; AID 1979; growth inhibition, % (test concentration not listed); C. albicans CaCi-2 (fluconazole-resistant clinical isolate) + fluconazole, Alamar Blue growth, 48 h;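 active = most replicates above 75%; inconclusive = exactly half above 75%; inactive = most below 75%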;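 note: all wells also contain fluconazole at 8 µg/ml as a sub-toxic cotreatment; 0% = median of DMSO wells and 100% = median of geldanamycin control wells; wells of about 8 µL received 7.5 nL stock; the first replicate is given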
LANA-H2B inh: blocks KSHV LANA binding to histone H2A/H2B; cell-free LANA-H2A/H2B peptide, fluorescence polarization; inhibition, % (concentration not given with the values); 320,000 tested, 0.6% active; in the data active = inhibition mostly above about 10%, no sharp cut-off; inactive = mostly below about 6.7%;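 note: stock transfer was 7.5 nL into about 10 µL; 0% = median of vehicle wells and 100% = median of positive control wells; one replicate is shown; the record names a cut of 25% in any replicate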
Target sequence (Q9QR71 whole entry, looked up): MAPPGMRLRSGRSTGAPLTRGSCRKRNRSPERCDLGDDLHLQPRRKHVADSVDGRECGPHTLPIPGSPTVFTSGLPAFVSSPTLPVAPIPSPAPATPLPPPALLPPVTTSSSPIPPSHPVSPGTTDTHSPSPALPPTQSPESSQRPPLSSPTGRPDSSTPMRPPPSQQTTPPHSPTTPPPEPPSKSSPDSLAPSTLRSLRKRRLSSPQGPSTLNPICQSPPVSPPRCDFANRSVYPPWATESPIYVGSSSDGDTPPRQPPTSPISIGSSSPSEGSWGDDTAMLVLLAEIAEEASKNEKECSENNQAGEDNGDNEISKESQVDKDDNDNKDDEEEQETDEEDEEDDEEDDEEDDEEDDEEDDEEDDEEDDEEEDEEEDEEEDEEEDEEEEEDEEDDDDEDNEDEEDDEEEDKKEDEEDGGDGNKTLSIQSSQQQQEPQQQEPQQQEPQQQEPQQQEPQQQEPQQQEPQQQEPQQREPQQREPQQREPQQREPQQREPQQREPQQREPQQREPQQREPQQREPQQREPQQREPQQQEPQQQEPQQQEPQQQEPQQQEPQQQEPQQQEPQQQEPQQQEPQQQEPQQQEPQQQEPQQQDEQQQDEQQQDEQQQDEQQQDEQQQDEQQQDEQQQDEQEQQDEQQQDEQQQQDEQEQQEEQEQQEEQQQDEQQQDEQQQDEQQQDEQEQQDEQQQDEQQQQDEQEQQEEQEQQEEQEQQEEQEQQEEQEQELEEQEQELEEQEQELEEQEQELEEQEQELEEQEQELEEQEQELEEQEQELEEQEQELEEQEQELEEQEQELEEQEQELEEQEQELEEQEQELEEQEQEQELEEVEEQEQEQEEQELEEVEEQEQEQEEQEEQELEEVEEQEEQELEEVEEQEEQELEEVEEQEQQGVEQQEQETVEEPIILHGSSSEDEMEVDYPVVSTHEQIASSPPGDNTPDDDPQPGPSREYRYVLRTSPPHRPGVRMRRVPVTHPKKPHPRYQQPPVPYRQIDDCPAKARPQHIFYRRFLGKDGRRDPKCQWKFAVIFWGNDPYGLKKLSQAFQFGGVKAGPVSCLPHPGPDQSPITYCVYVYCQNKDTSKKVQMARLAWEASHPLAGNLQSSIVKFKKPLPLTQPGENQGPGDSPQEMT
Vif A3G: HIV-1 Vif–A3G interaction blockers – biochemical, TR-FRET, GST-Vif 1-94, biotin-A3G peptide, dose response retest, primary screen (AID 1117319). inhibition, %; hits with a dose series show IC50 in µM. 260,000 tested, 0.57% active. TR-FRET GST-Vif / biotin-A3G peptide binding; higher % means a stronger effect; test concentration not given here; strong numbers were not always called active;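 active = above the screen mean plus three standard deviations and confirmed in dose response; inconclusive = results disagree or hit not tested in dose response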;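 note: Vif residues 1-94 fused to GST binding biotinylated APOBEC3G peptide 110-148; 0% = full assay without inhibitor and 100% = GST in place of GST-Vif; retest series ran down from 100 µM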
RanGTP-Impb inh: disruptors of Ran-importin-beta complex formation – biochemical, FRET, CFP-Ran, YFP-importin-beta, homogeneous, primary screen | cell-free CFP-Ran/YFP-importin-beta FRET ratio | inhibition, % (test concentration not listed) | 300,000 tested, 1.1% active | AID 2216;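 active = most replicates above 15%; inconclusive = exactly half above 15%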;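 note: 0% = DMSO wells and 100% = Ran loaded with GDP instead of GTP; wells of about 40 µL received 100 nL stock; the first replicate is given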
Active calls of the source: *; ? = inconclusive; · = not tested or not shown; & = joins results of further samples.

SMILES	B2AR ag	HNF4A DNA FP	ALR H2O2 inh	Calb FLC	LANA-H2B inh	Vif A3G	RanGTP-Impb inh
CCOC(=O)C1CCCN(c2c(NCC3CCCO3)c(=O)c2=O)C1 (centres undefined)	10	3.7	0	-8	0.1	15%	1.3
O=C(Nc1ccc(F)cc1F)NC1CCN(Cc2c(F)cccc2Cl)CC1	7	-0.2	-6	0	-1.7	?	-1.4
Nc1ccc(S(=O)(=O)NC2(C(F)(F)F)NC(=O)N(c3ccccc3F)C2=O)cc1 (centres undefined)	2	-1.2	-4	11	0.6	·	-0.4
Cc1ccc(-c2cc(C(=O)N/N=C/c3cccnc3)n[nH]2)o1	-4	1.2	1	0	2.9	-4%	-1.5
COC(=O)c1cc(NC(=O)c2ccccc2)c(=O)oc1/C=C/Nc1ccc(Oc2ccccc2)cc1	·	-111	·	-4	·	-4%	-12
Cc1ccc(-n2c(C)nnc2SCC(=O)Nc2ccccc2)cc1	-2	-4.1	-7	0	-0.4	2%	-3.5
O=C(Nc1ccc(C(=O)N2CCOCC2)cc1)Nc1cccc(Cl)c1	24	1.4	-4	-3	13	-3%	0.4
COCCNC(=O)C1CCCN(S(=O)(=O)c2ccc3c(c2)CC(C)N3C(=O)C2CC2)C1 (centres undefined)	-5	3.0	-2	-11	-0.4	·	2.9
COc1ccccc1-c1cc2ccccc2[nH]1	-7	-1.4	·	20	-10	·	-2.3
CCCN=C(C)c1c(-c2ccccc2)[nH]n(-c2nc3ccccc3s2)c1=O	-12	7.5	37	-6	0.8	3%	1.2
COc1cccc2cc(C(C)N(CCCN3CCOCC3)C(=S)Nc3ccc(C)c(C)c3)oc12 (centres undefined)	10	-2.9	-4	-13	2.6	21%	1.6
CCC(=O)Nc1cc2nn(-c3ccc(OC)cc3)nc2cc1C	-15	1.0	0	-8	-0.4	21%	3.0
Cc1ccc(Cn2c(SCC(C)C)nc3c2c(=O)n(C)c(=O)n3C)cc1	-5	-3.8	6	?	3.4	74%	-1.5
O=C(N/C(=C\c1ccco1)C(=O)N1CCCC1)c1cccs1	-6	-2.6	13	-12	-2.1	?	-5.1
Cc1ccc(C(=O)NCC(=O)OCC(=O)Nc2ccc(Cl)cc2C(F)(F)F)cc1C	0	-1.9	·	-6	·	18%	0.3
Cc1cc(C(F)(F)F)n2nc(-c3cccs3)cc2n1	-12	-3.3	-4	-2	0.3	9%	-1.7
COc1ccc(C/C(N)=N/OC(=O)Cc2ccccc2)cc1OC	-2	-5.6	-5	-6	-2.9	0%	-1.1
COc1ccc(/C=N/NC(=O)C2CC2)c(OC)c1OC	-17	-1.4	3	22	-0.1	·	5.1
O=C(c1cccc(-c2ccc(O)cc2)c1)N1CCN(c2ccc(F)cc2)CC1	3	0.8	-2	-2	-2.7	23%	3.6
COc1ccc(NC(=O)CSc2ccccn2)cc1OC	26	-1.9	-43	4	-2.9	6%	-0.8

Complete entries as entered above. Values in the order: B2AR ag	HNF4A DNA FP	ALR H2O2 inh	Calb FLC	LANA-H2B inh	Vif A3G	RanGTP-Impb inh
CCC(=O)Nc1cc2nn(-c3ccc(OC)cc3)nc2cc1C in the list: -15	1.0	0	-8	-0.4	21%	3.0
COc1ccccc1-c1cc2ccccc2[nH]1 in the list: -7	-1.4	·	20	-10	·	-2.3

Further structures follow:
SMILES	B2AR ag	HNF4A DNA FP	ALR H2O2 inh	Calb FLC	LANA-H2B inh	Vif A3G	RanGTP-Impb inh
Cc1c(CC(=O)O)c(=O)oc2c(C)c(OCc3ccc(F)cc3Cl)ccc12	-4	0.5	·	-8	4.3	-2%	0.4
COc1ccc(C(=O)NNC(=O)Nc2ccc(Cl)cc2)cc1	3	3.2	-1	6	4.9	·	1.9
O=C(OCCOCCN=C1NS(=O)(=O)c2ccccc21)c1ccc(F)cc1	12	3.9	-2	10	5.1	·	-3.7
Cc1cc(C)cc(N2CCCn3c2nc2c3c(=O)[nH]c(=O)n2C)c1	35	-1.5	-24	1	-1.9	0%	-0.2
COc1cc(C(=O)Nc2cc(C)ccn2)cc(OC)c1OC	-1	-0.6	-5	-11	-1.8	0%	?
O=C(CSc1nnnn1Cc1ccccc1)Nc1ccccc1	-12	3.2	-5	1	-2.4	-5%	1.9
O=C(Nc1cccc(-n2cnnn2)c1)c1ccncc1	9	2.7	-12	2	-2.1	·	5.9
CCOc1ccc(NC(=O)COc2nsnc2N2CCOCC2)cc1	-8	4.4	-1	8	-2.0	-5%	9.5
COc1ccc(C(=O)C2CCCN(Cc3cccn3-c3cccnc3)C2)cc1OC (centres undefined)	-6	1.4	0	-9	-4.7	5%	-3.3
CCOCCCNC(=O)c1ccc2c(c1)ncn2C1CCCC1	-11	-1.9	-6	-3	-0.2	-5%	-4.4
CCc1ccccc1NC(=O)c1ccc(NCCc2ccccc2)c([N+](=O)[O-])c1	4	15	-2	-8	-1.3	·	-0.1
CC(C)CNC(=O)c1c(F)c(F)c(F)c(F)c1F	3	3.4	-17	-16	-5.6	0%	-0.5
Nc1ccc2c(c1)-c1ccc(F)cc1C2=O	-1	17	·	·	·	-3%	·
O=S(=O)(N/N=C\c1cccn1-c1ccccc1)c1ccc2ccccc2c1	1	0.6	11	6	-2.3	?	1.7
O=C(CS(=O)(=O)c1c[nH]c2ccccc12)Nc1ccc2c(c1)OCCO2	2	0.1	-50	-11	-1.4	0%	-1.0
Cn1c2ccccc2c2nnc(SC3CCOC3=O)nc21 (centres undefined)	-11	-0.4	2	-1	-2.9	-1%	3.8
CC1CCN(S(=O)(=O)c2ccc3c(c2)c(=O)c(C(=O)N2CCCCC2)cn3C)CC1	5	2.9	·	?	6.5	-3%&22%	4.1
Cc1cc(C)cc(N(CCC(=O)O)S(=O)(=O)c2ccc3ccccc3c2)c1	17	6.2	0	-4	2.2	29%	-2.0
Cc1ccc(NS(=O)(=O)c2cccs2)nc1	14	-0.1	-1	-2	6.4	·	-1.1
O=C(O)c1[nH]c2ccccc2c1C=NCc1ccccc1Cl	4	-2.8	-4	28	-2.7	24%	0.6

(continued)
Structure | B2AR ag | HNF4A DNA FP | ALR H2O2 inh | Calb FLC | LANA-H2B inh | Vif A3G | RanGTP-Impb inh
COc1ccc(S(=O)(=O)O)cc1P(=O)(c1ccccc1)c1ccccc1 | -4 | 5.2 | -8 | -7 | 3.3 | -5% | -6.4
CN(C)c1ccc(-n2cccc2/C=C2/SC(=Nc3ccc(F)cc3)NC2=O)cc1 | 13 | 36* | -14 | -7 | 2.0 | 26% | 6.1
COC(=O)c1sc(S(=O)(=O)NCC(=O)O)c(C(=O)OC)c1C | -6 | 2.5 | -9 | -3 | -4.2 | -12% | 0.8
Cc1ccc(NC(=O)CCC(=O)OCC(=O)c2ccc(-c3ccccc3)cc2)cc1 | 15 | 4.1 | -2 | -20 | -1.3 | -9% | 3.0
O=C(CSC(=S)N1CCOCC1)Nc1nc(-c2ccccc2)c(-c2ccccc2)o1 | 12 | -4.5 | 1 | 13 | -0.1 | -5% | 2.0
CC(=O)N[C@@H](Cc1c[nH]c2ccccc12)C(=O)NC1CCCc2ccccc21 (some centres undefined) | -13 | 0.7 | 4 | 5 | -2.3 | · | -0.3
Cn1c2ccccc2c(=O)c2ccc(NCc3ccc4c(c3)OCO4)cc21 | 1 | -23 | · | · | · | -2% | ·
COc1ccc(C)cc1NC(=O)NNC(=O)c1ccoc1C | -7 | -2.0 | 23 | -6 | -1.3 | -6% | 1.5
C(=NN=C1c2ccccc2-c2ccccc21)c1ccc2c(c1)OCO2 | -2 | 2.6 | · | · | · | -12% | ·
CC1(c2nnc(-c3ccncc3)o2)CC(c2ccc([N+](=O)[O-])cc2)=NO1 (centres undefined) | 0 | -0.6 | · | -6 | · | 0% | 9.9
O=C(O)c1ccc(N2CC3CC(C2)c2cccc(=O)n2C3)c(NC(=S)Nc2ccc(Br)cc2)c1 (centres undefined) | 12 | -3.2 | · | -2 | -3.1 | 5% | -4.9
O=C(NCCN1CCOCC1)c1ccc(Cl)c(S(=O)(=O)N2CCCC2)c1 | -1 | -0.4 | 12 | -2 | -0.6 | 1% | 0.8
C=CCN(CC=C)S(=O)(=O)c1ncn[nH]1 | -2 | -1.3 | -33 | 6 | -2.3 | 3% | 1.9
COCC(=O)N1CCC(Oc2ccc(C(=O)N3C[C@@H](C)O[C@@H](C)C3)cc2)CC1 | -1 | -1.8 | -1 | 2 | -1.2 | · | -0.7
O=C(CSc1nc2ccccc2s1)Nc1ccc2c(c1)OCO2 | 3 | 0.1 | -10 | -11 | -0.2 | -7% | 1.5
Cc1ccccc1NC(=O)Cc1nc(COC(=O)/C=C/c2ccccc2)cs1 | -6 | 2.2 | -2 | 3 | 0.7 | -1% | -0.5
O=C(NCc1ccco1)c1cnn2c1NC(c1ccc(Br)cc1)CC2C(F)(F)F (centres undefined) | 6 | 6.0 | -1 | -1 | 3.6 | -6% | 25*
CN(Cc1ccc(Cl)cc1Cl)C(=O)CN1C(=O)NC2(CCCC2)C1=O | 0 | 6.6 | 3 | -9 | 2.8 | 3% | 3.4
Cc1cc(S(=O)(=O)NC(C)C)ccc1OCC(=O)NCc1ccccc1 | 8 | -0.7 | -2 | -5 | 3.4 | 11% | 0.6
Cc1nc2ccc(S(=O)(=O)NCC(=O)N3CCC(N4CCCCC4)CC3)cc2s1 | 13 | -6.4 | -8 | -13 | 1.1 | 1% | 5.4
Cc1nn(-c2ccc(C(=O)Nc3nnc(C4CC4)s3)cc2)c(C)c1Cl | -1 | -1.0 | -11 | 2 | 5.0 | 0% | -3.1
CC(=Nc1cccc(C)c1)c1sc2ccccc2c1O | 6 | 16 | 3 | -7 | -5.3 | 8% | 26*
Cc1ccc(S(=O)(=O)C2C(=O)NC3(C)CC2c2ccccc2O3)cc1 (centres undefined) | -5 | -0.8 | 0 | 0 | 1.6 | 9% | -3.7

Reformatted: entries from further up
Values run as follows: B2AR ag | HNF4A DNA FP | ALR H2O2 inh | Calb FLC | LANA-H2B inh | Vif A3G | RanGTP-Impb inh
O=C(CSC(=S)N1CCOCC1)Nc1nc(-c2ccccc2)c(-c2ccccc2)o1
 : 12 | -4.5 | 1 | 13 | -0.1 | -5% | 2.0
CN(C)c1ccc(-n2cccc2/C=C2/SC(=Nc3ccc(F)cc3)NC2=O)cc1
 : 13 | 36* | -14 | -7 | 2.0 | 26% | 6.1
